Source: PubChem
FGF22 binding – binders of recombinant human FGF22 by thermal shift; calls only at 9.99 µM; SYPRO orange fluorescence; percent of sucrose octasulfate shift, DMSO zero; 1.5% of 340,000 active; Q9HCT0;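 active means melting point raised past a set limit in the mean and every replicate; three in four hits are not shown here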
Target sequence (Q9HCT0 whole entry, looked up): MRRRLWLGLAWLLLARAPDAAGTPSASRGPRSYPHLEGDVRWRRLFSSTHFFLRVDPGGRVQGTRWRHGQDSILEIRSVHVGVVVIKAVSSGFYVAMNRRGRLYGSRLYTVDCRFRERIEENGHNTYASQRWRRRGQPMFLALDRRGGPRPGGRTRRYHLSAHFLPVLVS
rRNA inh HTS – selective bacterial rRNA inhibition in E. coli | 1.6% of 350,000 active | E. coli WT GFP vs humanized-ribosome RFP mutants, fluorescence, 24 h; hits give low values; DMSO median 0, no signal -100 | GFP signal change (wild-type ribosome), % (no concentration beside the values) | AID 720706;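 active means significant combined selectivity score with lowered wild-type GFP, culture density cut under 30%, mutant RFP and density less affected; inactive means any of these conditions unmet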; further: one replicate is shown; some compounds called inactive have numbers as strong as hits
rRNA inh HTS OD600 – also measured in rRNA inh HTS; calls as there; OD600 change, %; measured here: OD600 growth;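 optical density of the mix in the first replicate; 0 = DMSO median and -100 = no signal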
rRNA inh HTS RFP – recorded beside rRNA inh HTS, whose call it bears; RFP signal change, %; measured here: RFP humanized mutant strains;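 first replicate; 0 = DMSO median and -100 = no signal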
Active calls of the source: *; i = inactive; + = active, no number.

entry	mol	rRNA inh HTS RFP	rRNA inh HTS OD600	FGF22 binding	rRNA inh HTS
1	Cc1noc(C)c1NC(=O)N(C)C[C@H]1Oc2ncc(C#CC(C)C)cc2C(=O)N([C@@H](C)CO)C[C@@H]1C	-1.4	-1	i	5
2	COCCNC(=O)C[C@@H]1C[C@H]2c3cc(NS(=O)(=O)c4ccccc4)ccc3O[C@H]2[C@@H](CO)O1	-1.6	1	i	6
3	O=C(C[C@@H]1C[C@H]2c3cc(NC(=O)Nc4ccccc4F)ccc3O[C@H]2[C@H](CO)O1)NCc1ccc2c(c1)OCO2	-0.1	-3	i	-1
4	C[C@@H]1CCCCO[C@H](CN(C)C(=O)Nc2cccc3ccccc23)[C@@H](C)CN([C@@H](C)CO)C(=O)c2cc(NS(=O)(=O)c3cn(C)cn3)ccc2O1	-2.8	-32	i	-3
5	CC(C)C#Cc1cnc2c(c1)C(=O)N([C@H](C)CO)C[C@H](C)[C@H](CN(C)Cc1cncnc1)O2	-2.2	-9	i	-4
6	C[C@H](CO)N1C[C@H](C)[C@@H](CN(C)C(=O)NC2CCCCC2)OCCCC[C@H](C)Oc2ccc(NC(=O)Nc3cccc4ccccc34)cc2C1=O	-1.9	6	i	-1
7	CC(C)NC(=O)N(C)C[C@H]1Oc2ncc(-c3ccccc3F)cc2C(=O)N([C@@H](C)CO)C[C@@H]1C	-2.4	4	i	0
8	C[C@@H]1CN([C@H](C)CO)C(=O)c2cc(-c3cccc(F)c3)cnc2O[C@@H]1CN(C)C	-2.9	6	i	2
9	C[C@@H]1CCCCO[C@@H](CN(C)C(=O)c2ccncc2)[C@@H](C)CN([C@H](C)CO)C(=O)c2cc(NC(=O)c3ccncc3)ccc2O1	-2.0	6	i	4
10	Cc1noc(C)c1NC(=O)N(C)C[C@@H]1Oc2ccc(NC(=O)Nc3ccc(F)cc3)cc2C(=O)N([C@H](C)CO)C[C@@H]1C	-0.1	2	i	1
11	O=C([C@@H]1[C@@H](CO)[C@@H]2Cn3c(ccc(-c4ccccc4F)c3=O)[C@H]1N2C(=O)C1CC1)N1CCOCC1	-1.6	10	i	3
12	CCC(=O)N1C[C@@H](C)[C@H](OC)CN(C)C(=O)c2cc(NC(=O)Nc3ccc(Cl)cc3)ccc2OC[C@@H]1C	5.3	-14	i	-6
13	COCC(=O)N(C)C[C@@H]1Oc2ncc(-c3ccc(C)cc3)cc2C(=O)N([C@@H](C)CO)C[C@H]1C	0.3	9	i	0
14	CCCC(=O)Nc1ccc2c(c1)C(=O)N(C)[C@@H]1CC[C@H](CC(=O)N3CCCCC3)O[C@H]1CO2	-1.7	9	i	6
15	COc1cccc(S(=O)(=O)N2C[C@@H](O)COC[C@@H]3O[C@H](CC(=O)N4CCN(C)CC4)CC[C@H]32)c1	0.4	2	i	7
16	Cc1ccc(S(=O)(=O)Nc2ccc3c(c2)C(=O)N([C@H](C)CO)C[C@@H](C)[C@@H](CN(C)S(=O)(=O)c2c(C)noc2C)OCCCC[C@H](C)O3)cc1	1.6	1	i	1
17	C[C@@H]1CN([C@@H](C)CO)S(=O)(=O)c2ccc(C#CC(C)(C)O)cc2O[C@@H]1CN(C)C	0.0	8	i	2
18	COc1ccc(S(=O)(=O)Nc2ccc3c(c2)C(=O)N([C@@H](C)CO)C[C@@H](C)[C@@H](CN(C)Cc2ccc(C(=O)O)cc2)OCCCC[C@H](C)O3)cc1	-1.8	4	i	-1
19	COc1ccc(S(=O)(=O)Nc2ccc3c(c2)C(=O)N([C@H](C)CO)C[C@@H](C)[C@@H](CN(C)C(=O)NC(C)C)OCCCC[C@@H](C)O3)cc1	3.1	0	i	1
20	C[C@@H]1CN([C@H](C)CO)C(=O)c2cc(-c3ccc(C#N)cc3)cnc2O[C@H]1CN(C)Cc1cccnc1	0.9	10	i	2
21	CCCNC(=O)Nc1ccc2c(c1)C(=O)N(C)[C@H]1CC[C@H](CC(=O)NCCCN(C)C)O[C@H]1CO2	-1.3	2	i	2
22	CC(C)C#Cc1cnc2c(c1)C(=O)N([C@H](C)CO)C[C@H](C)[C@H](CN(C)S(=O)(=O)c1cn(C)cn1)O2	1.0	1	i	7
23	C[C@@H]1CN([C@@H](C)CO)C(=O)c2cc(NC(=O)Nc3ccc(C(F)(F)F)cc3)ccc2O[C@H]1CN(C)C(=O)Nc1ccccc1	2.0	-3	i	-1
24	O=C(C[C@@H]1CC[C@@H]2[C@H](COC[C@@H](O)CN2Cc2ccc(F)cc2)O1)N1CCc2ccccc2C1	0.5	0	i	-4
25	COc1ccc(S(=O)(=O)N(C)C[C@@H]2OCCCC[C@H](C)Oc3ccc(NS(=O)(=O)c4ccccc4)cc3C(=O)N([C@@H](C)CO)C[C@@H]2C)cc1	1.9	3	i	1
26	CC(=O)N(C)C[C@@H]1Oc2ncc(C#CC(C)(C)O)cc2C(=O)N([C@H](C)CO)C[C@H]1C	-1.4	10	i	6
27	C[C@@H]1CN([C@@H](C)CO)C(=O)Cc2cc(NS(=O)(=O)c3ccccc3)ccc2O[C@H]1CN(C)S(=O)(=O)c1cccs1	-1.1	-11	i	-5
28	O=C(Nc1ccc(-c2ccccc2)cc1)[C@@H]1[C@@H](CO)[C@@H]2Cn3c(cccc3=O)[C@H]1N2Cc1cccnc1	3.0	-6	i	-6
29	COC(=O)[C@]12C[C@H](CC(=O)NCc3cccc4ccccc34)C(=O)N(Cc3ccccc3)C1=C[C@H](C1CCCC1)O[C@@H]2C	0.8	15	i	17
30	O=C(C[C@@H]1CC[C@H]2[C@@H](COC[C@@H](O)CN2C(=O)c2cccnc2)O1)Nc1ccc(-c2ccccc2)cc1	6.3	-4	i	1
31	C[C@@H]1CN([C@@H](C)CO)S(=O)(=O)c2ccc(-c3ccccc3)cc2O[C@H]1CN(C)CC1CC1	0.1	-10	i	-6
32	CCN1[C@@H]2c3ccc(/C=C/c4ccccc4)c(=O)n3C[C@H]1[C@H](CO)[C@H]2C(=O)NCc1ccccn1	0.4	-8	i	-2
33	C[C@H]1CN([C@@H](C)CO)C(=O)c2cccc(NC(=O)C3CCCCC3)c2O[C@@H]1CN(C)Cc1ccc(Oc2ccccc2)cc1	-3.0	8	i	-4
34	C[C@@H]1CN([C@@H](C)CO)C(=O)c2cc(-c3cccc(F)c3)cnc2O[C@@H]1CN(C)C(=O)C1CCCCC1	-0.2	10	i	1
35	CO[C@@H](CN(C)C(=O)Nc1ccc(Cl)cc1)[C@H](C)CN(Cc1ccccc1Cl)[C@@H](C)CO	1.3	-17	i	-4
36	C[C@@H]1CN([C@@H](C)CO)C(=O)Cc2cc(NC(=O)Nc3ccc(C(F)(F)F)cc3)ccc2O[C@H]1CN(C)S(C)(=O)=O	-1.4	4	i	-1
37	CCCCCCCCN1C(=O)[C@@H](CC(=O)NCCC(C)C)C[C@@]2(C(=O)OC)C1=C[C@H](C1CCCC1)O[C@@H]2C	1.3	1	i	10
38	CO[C@@H]1CN(C)C(=O)c2cc(NC(C)=O)ccc2OC[C@H](C)N(Cc2ccccn2)C[C@@H]1C	1.5	-2	i	-2
39	Cc1noc(C)c1NC(=O)N(C)C[C@H]1OCCCC[C@H](C)Oc2ccc(NC(=O)CCC(F)(F)F)cc2C(=O)N([C@H](C)CO)C[C@@H]1C	-0.2	13	i	2
40	CCCC#Cc1ccc2c(c1)[C@H]1[C@H](CCN1S(=O)(=O)c1ccc(C)cc1)[C@H](CO)N2C	8.3	-9	i	-8
41	CCCNC(=O)N(C)C[C@@H]1[C@@H](c2ccccc2)[C@H](CO)N1C(=O)c1ccccc1	0.3	-3	i	1
42	COc1ccc(NC(=O)Nc2ccc3c(c2)C(=O)N([C@@H](C)CO)C[C@@H](C)[C@@H](CN(C)C(=O)Nc2ccc(F)cc2)OCCCC[C@@H](C)O3)cc1	-5.0	-9	i	-1
43	CN(C)CC(=O)N1[C@H](C#N)[C@H](c2ccc(-c3ccccc3F)cc2)[C@@H]1CO	-0.5	20	i	2
44	O=C(C[C@H]1C=C[C@@H](NC(=O)c2cccc(F)c2)[C@H](CO)O1)NCc1ccc(Oc2ccccc2)cc1	-1.1	7	i	2
45	CC(C)NC(=O)Nc1ccc2c(c1)C(=O)N([C@@H](C)CO)C[C@@H](C)[C@@H](CN(C)C)OCCCC[C@H](C)O2	-0.8	4	i	0
46	Cc1ccc(S(=O)(=O)N[C@H]2C=C[C@@H](CC(=O)NCCc3ccncc3)O[C@H]2CO)cc1	-1.1	0	i	2
47	C[C@H](O)C#Cc1ccc([C@@H]2[C@H]3CN(C(=O)c4ccncc4)CCCCN3[C@H]2CO)cc1	-2.4	10	i	3
48	C[C@H](CO)N1C[C@H](C)[C@H](CN(C)C(=O)c2cccc(F)c2)Oc2ncc(-c3cccc(F)c3)cc2C1=O	0.9	10	i	3
49	O=C(C[C@H]1CC[C@@H]2[C@H](COC[C@@H](O)CN2Cc2ccccc2)O1)N1CCOCC1	-0.1	-9	i	-5
50	C/C=C/c1ccc([C@@H]2[C@@H](CO)N(C(=O)Cc3cccnc3)[C@H]2CNC(C)=O)cc1	-2.4	0	i	0
51	C[C@H](CO)N1C[C@H](C)[C@@H](CN(C)CC2CCCCC2)OCCCC[C@H](C)Oc2ccc(NS(=O)(=O)c3cccs3)cc2C1=O	-0.5	5	i	0
52	COc1ccc(NC(=O)N(C)C[C@@H]2Oc3c(NS(=O)(=O)c4ccc(F)cc4)cccc3C(=O)N([C@@H](C)CO)C[C@H]2C)cc1	-2.7	6	i	-1
53	CCCN1C[C@H](C)[C@@H](OC)CN(C)C(=O)c2ccc(NC(=O)c3cccc(OC)c3)cc2OC[C@H]1C	-0.6	-3	i	-1
54	CO[C@@H]1CN(C)C(=O)c2cc(NC(=O)Nc3ccccc3F)ccc2OC[C@@H](C)N(C(C)=O)C[C@H]1C	-2.1	-4	i	1
55	COc1ccc(NC(=O)N(C)C[C@H]2Oc3ccc(NC(=O)Nc4c(C)noc4C)cc3CC(=O)N([C@H](C)CO)C[C@H]2C)cc1	-0.7	14	i	-1
56	COc1cccc(NC(=O)N(C)C[C@@H]2Oc3cc(-c4ccccc4F)ccc3S(=O)(=O)N([C@H](C)CO)C[C@@H]2C)c1	2.0	-7	+	-5
57	C[C@H]1CCCCO[C@@H](CN(C)C)[C@@H](C)CN([C@@H](C)CO)C(=O)c2cc(NS(=O)(=O)c3ccc(Cl)cc3)ccc2O1	-0.3	6	i	3
58	CNC[C@@H]1Oc2cc(C#Cc3ccc(F)cc3)ccc2S(=O)(=O)N([C@H](C)CO)C[C@H]1C	21	-10	i	6
59	C[C@@H]1CCCCO[C@@H](CN(C)C(=O)C2CCCCC2)[C@@H](C)CN([C@@H](C)CO)C(=O)c2cc(NS(=O)(=O)c3cn(C)cn3)ccc2O1	-1.7	5	i	-2
60	CCCNC(=O)[C@H]1[C@H](CO)[C@H]2Cn3c(ccc(-c4ccccc4F)c3=O)[C@@H]1N2C(C)=O	0.4	13	i	0

Further records follow:
entry	mol	rRNA inh HTS RFP	rRNA inh HTS OD600	FGF22 binding	rRNA inh HTS
61	C[C@@H]1CN([C@H](C)CO)C(=O)c2cccc(NC(=O)Nc3ccc4c(c3)OCO4)c2O[C@@H]1CN(C)Cc1ccc2c(c1)OCO2	-1.4	-4	i	1
62	COc1ccccc1-c1ccc2c(c1)[C@H]1[C@H](CCN1S(=O)(=O)c1ccccc1OC)[C@@H](CO)N2	1.8	0	i	-2
63	COc1ccccc1CN(C)C[C@@H]1OCc2ccccc2-c2c(n(C)c3ccccc23)C(=O)N([C@H](C)CO)C[C@@H]1C	14	-16	i	2
64	CN(C)CC(=O)N[C@@H]1CC[C@H](CCNC(=O)C2CCC2)O[C@@H]1CO	-2.1	9	i	0
65	CO[C@H]1CN(C)C(=O)c2ccc(NC(=O)c3nc4ccccc4s3)cc2OC[C@@H](C)N(Cc2ccncc2)C[C@H]1C	17	-11	i	-18

Excerpt: compounds 1 to 9
entry	mol	rRNA inh HTS RFP	rRNA inh HTS OD600	FGF22 binding	rRNA inh HTS
1	Cc1noc(C)c1NC(=O)N(C)C[C@H]1Oc2ncc(C#CC(C)C)cc2C(=O)N([C@@H](C)CO)C[C@@H]1C	-1.4	-1	i	5
2	COCCNC(=O)C[C@@H]1C[C@H]2c3cc(NS(=O)(=O)c4ccccc4)ccc3O[C@H]2[C@@H](CO)O1	-1.6	1	i	6
3	O=C(C[C@@H]1C[C@H]2c3cc(NC(=O)Nc4ccccc4F)ccc3O[C@H]2[C@H](CO)O1)NCc1ccc2c(c1)OCO2	-0.1	-3	i	-1
4	C[C@@H]1CCCCO[C@H](CN(C)C(=O)Nc2cccc3ccccc23)[C@@H](C)CN([C@@H](C)CO)C(=O)c2cc(NS(=O)(=O)c3cn(C)cn3)ccc2O1	-2.8	-32	i	-3
5	CC(C)C#Cc1cnc2c(c1)C(=O)N([C@H](C)CO)C[C@H](C)[C@H](CN(C)Cc1cncnc1)O2	-2.2	-9	i	-4
6	C[C@H](CO)N1C[C@H](C)[C@@H](CN(C)C(=O)NC2CCCCC2)OCCCC[C@H](C)Oc2ccc(NC(=O)Nc3cccc4ccccc34)cc2C1=O	-1.9	6	i	-1
7	CC(C)NC(=O)N(C)C[C@H]1Oc2ncc(-c3ccccc3F)cc2C(=O)N([C@@H](C)CO)C[C@@H]1C	-2.4	4	i	0
8	C[C@@H]1CN([C@H](C)CO)C(=O)c2cc(-c3cccc(F)c3)cnc2O[C@@H]1CN(C)C	-2.9	6	i	2
9	C[C@@H]1CCCCO[C@@H](CN(C)C(=O)c2ccncc2)[C@@H](C)CN([C@H](C)CO)C(=O)c2cc(NC(=O)c3ccncc3)ccc2O1	-2.0	6	i	4

Not all compounds are listed (hit frequency here may not be typical).
